KCNQ2 pot: potentiators of rat KCNQ2 potassium channel; 310,000 tested, 0.54% active; CHO-K1 KCNQ2, FluxOR thallium flux fluorescence; active compounds read high; Potassium voltage-gated channel subfamily KQT member 2 (Rattus norvegicus), O88943; B-score at 10 µM;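 active = fluorescence ratio B-score at least 3 SD of library B-scores, with initial fluorescence B-score within 3 SD, cut at about 5.3 in these data; same plate scores as AID 2156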;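 also: B-score of peak minus minimum over baseline fluorescence ratio after K+ and Tl+ stimulus; positive B-score means potentiation of KCNQ2 with more thallium influx and brighter signal; only the inactives scoring about 0 or higher are listed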
Target sequence (O88943 whole entry, looked up): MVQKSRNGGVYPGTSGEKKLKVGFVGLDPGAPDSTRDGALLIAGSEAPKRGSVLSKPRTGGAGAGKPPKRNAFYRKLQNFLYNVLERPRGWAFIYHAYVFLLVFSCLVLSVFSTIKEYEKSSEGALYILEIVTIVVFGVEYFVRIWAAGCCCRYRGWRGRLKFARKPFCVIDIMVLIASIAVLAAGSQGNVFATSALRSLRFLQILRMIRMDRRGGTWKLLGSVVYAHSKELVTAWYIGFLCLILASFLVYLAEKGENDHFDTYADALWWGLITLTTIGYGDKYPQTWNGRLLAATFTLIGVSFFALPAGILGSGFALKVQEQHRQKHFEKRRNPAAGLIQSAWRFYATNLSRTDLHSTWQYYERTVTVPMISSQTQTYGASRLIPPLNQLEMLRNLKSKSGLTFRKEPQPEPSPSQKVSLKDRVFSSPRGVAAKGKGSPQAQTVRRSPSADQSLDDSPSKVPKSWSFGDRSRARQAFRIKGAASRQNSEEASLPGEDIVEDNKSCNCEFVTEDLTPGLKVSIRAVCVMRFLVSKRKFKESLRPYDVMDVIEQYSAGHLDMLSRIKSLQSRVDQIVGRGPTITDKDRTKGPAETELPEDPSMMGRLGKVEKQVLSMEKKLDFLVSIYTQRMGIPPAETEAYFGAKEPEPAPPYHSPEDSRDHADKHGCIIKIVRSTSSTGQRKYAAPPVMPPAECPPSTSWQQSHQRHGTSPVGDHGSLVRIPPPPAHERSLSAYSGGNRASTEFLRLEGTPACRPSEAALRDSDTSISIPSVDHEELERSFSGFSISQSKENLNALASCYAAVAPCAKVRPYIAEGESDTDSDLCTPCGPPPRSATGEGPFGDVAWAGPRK
KCNQ2 pot baseline: second read-out of KCNQ2 pot, no call of its own (marks repeat the call); B-score; compound at 10 µM; measured here: initial fluorescence intensity artifact check;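 brightness before thallium and not channel activity; 0 = typical well and far values either way flag optical interference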
Active calls of the source: *. The list is partial, so the mix of outcomes need not match the whole.

SMILES	KCNQ2 pot	KCNQ2 pot baseline
O=C(Nc1ccc(C(=O)N2CCCC2)cc1)c1ccc(F)cc1Cl	0.63	-1.4
CC(C)(C)NC(=O)CN(CC1CCCO1)C(=O)CNS(=O)(=O)c1ccc(F)cc1 (stereo not given)	0.04	0.16
COCCCn1c(SCC(=O)NC2CCCCC2)nnc1-c1ccco1	0.44	0.13
COc1ccc2cc(C3OCCO3)c(Cl)nc2c1	2	-0.52
COc1ccc(Nc2nc(-c3cccs3)cs2)c(OC)c1	0.06	-0.11
CCn1ncc(C2=NOC(C(=O)Nc3ccccc3C(=O)OC)C2)c1C (stereo not given)	0.6	0.49
CCN(C(=O)CN1CCN(S(=O)(=O)c2cc(Cl)ccc2Cl)CC1)c1c(N)n(Cc2ccccc2)c(=O)[nH]c1=O	0.06	2
Cc1ccc(N2CC(C(=O)N3CCC(C(=O)Nc4nnc(C(C)(C)C)s4)CC3)CC2=O)cc1 (stereo not given)	1.2	-1
Cc1c(Cl)ccc2sc(N3CCN(C(=O)C4=COCCO4)CC3)nc12	1.6	0.01
CC1CCc2c(sc3nc(CN4CCOCC4)nc(NS(=O)(=O)c4cccc([N+](=O)[O-])c4)c23)C1 (stereo not given)	0.07	-0.24
Cc1ccc(-c2n[nH]c(=S)n2/N=C/c2ccc(C(=O)O)cc2)cc1	0.12	0
C=CCn1c(-c2cc(Cl)ccc2OC)n[nH]c1=S	1.1	0.01
Cc1ccc(-c2nnc(Nc3ccc(O)cc3)c3ccccc23)cc1S(=O)(=O)NCCO	2.6	-0.22
O=C(COC(=O)COc1ccc(Br)cc1)NCCC1=CCCCC1	0.07	0.44
CN(CC(=O)NC(=O)NCc1ccco1)Cc1nc2ccccc2c(=O)[nH]1	0.68	-0.19
O=C(NCCc1csc(-c2ccccc2)n1)c1ccco1	0.08	-0.58
Cc1cc(NC(=O)c2cccs2)no1	0.14	-1.2
CC(=O)NCCNC(=O)c1ccc(-n2c(C)ccc2C)cc1	0.65	1.6
CCN(CC)S(=O)(=O)c1ccc(NC(=O)c2ccc(N(C)S(C)(=O)=O)cc2)cc1	2.3	-1.9
N/C(CCN1CCCCC1)=N/O	0.9	-0.4
COc1cc(C(=O)OC(C)C(=O)NCC2CCCCC2)cc(NC(=O)c2ccco2)c1OC (stereo not given)	1.4	-0.21
O=S(=O)(c1ccc(OCc2nc3ccccc3s2)c(Cl)c1)N1CCOCC1	0.66	-0.45
Cc1nc(-c2ccc(S(=O)(=O)NCc3ccccn3)s2)cs1	1.2	1.9
Cc1nc2scc(C)n2c(=O)c1S(=O)(=O)N1CCN(c2ccccn2)CC1	1.4	-0.08
COc1ccc(S(=O)(=O)N(C)CC(=O)NCCCn2ccnc2)cc1Cl	0.44	0.97
O=C(O)CC1S/C(=N/N=C2CCCCC2)N(c2ccccc2)C1=O (stereo not given)	0.13	-1.6
CCOC(=O)N1CCN(c2cc3nccnc3cc2F)CC1	1	0.02
CCOC(=O)c1c(NC(=O)C2C3C=CC(C3)C2(C)C(=O)O)sc2c1CCCC2 (stereo not given)	0.23	1
CCC(=O)Nc1ccc(C(=O)n2nc(C)cc2C)cc1	0.62	-0.72
COc1ccc(Cl)cc1S(=O)(=O)N(C)CC(=O)NCCCn1ccnc1	0.73	-0.14
CN(C)c1cccc(C(=O)N/C=C/n2cnc3cc(C(F)(F)F)ccc32)c1	0.04	-1.7
COc1ccc(C(=O)NCc2cccnc2)cc1	1.2	0.73
Cc1csc2nc(SCC(=O)N3CCN(c4ccccc4)CC3)[nH]c(=O)c12	0.01	0.09
COc1ccc(N2CCN(C(=O)c3ccccc3NS(=O)(=O)c3ccccc3)CC2)cc1	0.44	-0.93
Cn1cc(Br)c(-c2cccc(NC(=O)CC(C)(C)CC(=O)O)c2)n1	0.74	0.07
O=C(O)/C=C/C(=O)Nc1ccc(SC(F)(F)C(F)(F)C(F)(F)F)cc1	1.2	-0.25
Cc1cc(C)nc(NC(=O)c2ccc(Cl)cc2[N+](=O)[O-])c1	0.05	-1.3
COCCCNC(=O)CCCOc1ccccc1	0.71	-0.62
CC1CC(C)CN(C(=O)CCNS(=O)(=O)c2cccs2)C1 (stereo not given)	0.16	1.9
Cn1c(Nn2cnnc2)nc2ccccc21	0.01	-0.22
O=S(=O)(N/N=C\c1cccn1-c1ccccc1)c1ccc2ccccc2c1	0.65	-1.2
COc1ccc(C(=O)Nc2ccc(Cl)cc2C(=O)NCc2ccco2)cc1OC	0.43	-1.6
COc1cc(CNC2CCCc3ccccc32)cc(OC)c1OC (stereo not given)	2.1	1.1
O=S(=O)(Nc1ccc(-c2cn3c(n2)SCC3)cc1)c1cccs1	0.68	0.4
CCCOc1ccc(C(=O)NC(=S)Nc2nc3ccccc3s2)cc1	2.4	0.85
OCCC1CN(C/C=C/c2ccco2)CCN1Cc1ccccc1 (stereo not given)	0.26	0.63
O=C(COc1ccccc1)Nc1c2c(nn1-c1ccc(F)cc1)CS(=O)(=O)C2	0.06	-0.85
Cn1c(=O)c2c(nc(N3CCCCCC3)n2CC(=O)c2ccc(Br)cc2)n(C)c1=O	2.1	0.03
CCc1ccc(NC(=O)C(=O)N/N=C(\C)CC(=O)NCc2ccc(Cl)cc2)cc1	0.7	0.26
O=C(Nc1nccs1)c1ccc(F)c(S(=O)(=O)N2CCOCC2)c1	2.1	-0.34
Further entries:
SMILES	KCNQ2 pot	KCNQ2 pot baseline
O=C(NC1=NCCS1)c1ccncc1	0.02	-0.95
CCCC(=O)Nc1sc(-c2ccccc2)c(-c2ccccc2)c1C(=O)O	1.4	-0.79
CCc1cccc(OCCCN2C(=O)NC(C)(C)C2=O)c1	0.22	0.07
CCn1cc(CCC(=O)O)c(C)n1	0.25	-0.94
c1ccc(N=P(c2nc3ccccc3o2)(N2CCOCC2)N2CCOCC2)cc1	1.1	0.01
Oc1c(Br)cc(Cl)cc1C=Nc1ccc(N2CCOCC2)cc1	11*	0.88*
Cc1ccc(N(C)C(=O)N2CCN(c3ccccn3)CC2)cc1	0.53	-1.1
COc1ccc(OCCCC(=O)OC(C)C(=O)Nc2ccc(C)cc2)cc1 (stereo not given)	0.93	0.4
COc1ccc(-c2cc(C(=O)NCCN3CCOCC3)c3ccccc3n2)cc1OC	0.67	-0.01
O=C(CSc1nc2scc(-c3ccccc3)c2c(=O)[nH]1)NCCc1ccccc1	0.51	0.22
Cc1ccc(C)c(OCc2nnc(SCC(=O)NC(=O)NCc3ccco3)o2)c1	0.37	0.03
CCOC(=O)c1c(C)[nH]c(C)c1C(=O)COC(=O)c1c(OC)cccc1OC	0.14	0
COc1cc(NC(=O)CN2C(=O)c3ccccc3C2=O)c(C(=O)O)cc1OC	1	1.1
COc1ccc(NC(=O)C2CCCN(S(=O)(=O)c3ccc(C)cc3)C2)cc1OC (stereo not given)	0.03	0.49
O=C(O)c1ccc(/C=N/NC(=O)c2ccc(NS(=O)(=O)c3cccs3)cc2)cc1	0.5	-1.1
CC(C)C(NC(=O)OCc1ccccc1)C(=O)O (stereo not given)	0.27	1.8
CC(C)C(=O)NCCc1nc2ccccc2n1CCOc1ccccc1	0.88	0.26
CCCN(CCC)CCNC(=S)Nc1ccc2nc3n(c(=O)c2c1)CCCCC3	0.48	-0.16
O=C(CCC(=O)c1ccc(Br)cc1)Nc1cccnc1	0.34	-0.75
O=C(O)c1cccc(S(=O)(=O)N(Cc2ccccc2)c2cccc(C(F)(F)F)c2)c1	0.28	1.2
Cc1ccc(C(=O)OCC(=O)NCC2CCCO2)c(C)c1 (stereo not given)	0.1	0.92
COc1ccccc1NC(=O)CCCc1c[nH]c2ccccc12	0.01	-0.3
CCOc1ccc(Br)cc1S(=O)(=O)Nc1cccc(S(=O)(=O)N(C)C)c1	0.24	-1.4
COc1ccc(-n2cc(CNCC3CC(=O)N(C4CC4)C3)c(-c3ccccc3Cl)n2)cc1 (stereo not given)	0.09	-0.75
O=C1NCCc2c1[nH]c1c(Cl)ccc(Cl)c21	0.24	0.68
O=C(CSc1nnc(-c2ccccc2)o1)NC1CCS(=O)(=O)C1 (stereo not given)	0.58	-0.19
Cc1cc(C)c(S(=O)(=O)Nc2c(C)n(C)n(-c3ccccc3)c2=O)cc1[N+](=O)[O-]	0.85	-0.42
COc1ccc(Br)cc1CNC(=O)CCC(=O)n1nc(C)c2ccccc21	0.01	1.1
CC(=O)c1cccc(NC(=S)N2CCc3ccccc32)c1	1.1	0.13
O=C(C1CCN(S(=O)(=O)c2ccc(Cl)cc2)CC1)N1CCCC1	0.52	-0.02
COCCN(Cc1cc2cc3c(cc2n2nnnc12)OCO3)C(=O)c1ccccc1F	0.18	-0.47
CC1=C(C(=O)N2CCOCC2)C(c2ccccc2F)C2=C(CCCC2=O)N1 (stereo not given)	0.05	0.15
O=C(NCc1ccncc1)Nc1ccccc1Cl	0.42	-0.11
Cc1ccc(-c2nc3ccccc3nc2Cl)cc1	1.2	0.01
N/C(=N\N=C\c1ccc2c(c1)OCO2)SC1CC(=O)N(c2ccc(C(=O)O)cc2)C1=O (stereo not given)	2.3	-1.5
COc1ccc(C(=O)N/N=C/C(C)c2ccccc2)cc1OC (stereo not given)	0.64	0.52
COc1ccc2[nH]c(=O)c(CNc3ccccc3)cc2c1	0.8	2.8
Fc1cccc(Cl)c1CSc1nnc(CN2CCOCC2)n1-c1ccccc1	1.5	-0.12
CC(C)(C)c1ccc(CNC(=O)c2ccc3c(c2)NC(=O)CO3)cc1	1.5	2.1
CC(C(=O)c1ccc(-c2ccccc2)cc1)[n+]1ccccc1 (stereo not given)	1.6	-0.41
Cc1[nH]c(C)c(S(=O)(=O)N(C)Cc2ccccc2)c1C(=O)N1CCCCC1	0.37	-0.63
CCn1c(COc2ccc3ccccc3c2C)nnc1SCC(=O)Nc1cccc(C(=O)O)c1	0.49	0.22
CC1CCc2sc3ncnc(N4CCN(C)CC4)c3c2C1 (stereo not given)	1.9	1.5
COc1ccc(CC(=O)Nc2cc(S(=O)(=O)N3CCOCC3)ccc2N2CCOCC2)cc1	1	-0.59
Nc1nc(-c2ccco2)nn1C(=O)c1ccccc1Cl	0.69	0.32
COc1ccc(CN(N=O)C2CC(=O)N(c3ccc(OC)cc3)C2=O)cc1 (stereo not given)	1.5	-1.9
CC(=O)Nc1ccc(C(=O)Nc2cc(C(F)(F)F)ccc2-n2cnc3ccccc32)cc1	0.33	0.15
CCC(C)c1ccccc1N1CC(C(=O)Nc2ccc(C)c(S(=O)(=O)N3CCOCC3)c2)CC1=O (stereo not given)	1.2	-0.13
CCOc1ccc(N(CC(=O)NCC2CCCO2)C(=O)CCC(=O)Nc2ccccn2)cc1 (stereo not given)	1.8	2.3
O=C(CSc1nc2ccccc2s1)NNC(=S)Nc1ccc(Br)cc1	0.09	-0.51
Following part:
SMILES	KCNQ2 pot	KCNQ2 pot baseline
COc1cccc(N2CC(C(=O)NNC(=O)c3ccc(Cl)cc3)CC2=O)c1 (stereo not given)	0.33	-0.59
COc1ccc(C(=O)N2CCN(C)C(C)C2)cc1OC1CCN(C(C)=O)CC1 (stereo not given)	0.16	-0.47
CN1C(=O)C(CC(=O)N2CCN(C(c3ccccc3)c3ccccc3)CC2)N(C)C1=O (stereo not given)	0.08	-1.2
COc1ccc(-c2[nH]ncc2CN(C)C(C)c2ccon2)c(OC)c1 (stereo not given)	0.94	1.3
Cc1cc(C)cc(N(CC(=O)NCc2ccccc2)C(=O)CCC(=O)Nc2ccccn2)c1	0.06	0.26
COC(=O)Cc1c(O)ccn(Cc2cccc(C(F)(F)F)c2)c1=O	0.68	0.26
O=C(NNC1=C(C(=O)C(F)(F)F)CCC1)c1ccccc1Cl	19*	-0.37*
COCC(=O)N(Cc1cc2cc(OC)ccc2[nH]c1=O)c1ccc(C)cc1	1.4	-1.5
Cc1ccccc1Cn1c(=O)n(-c2ccccc2)c(=O)c2ccc(C(=O)NCc3ccco3)cc21	0.05	1.6
CCOC(=O)c1c(C)c(-c2ccccc2)n(CC(=O)N2CCN(C)CC2)c1C	1.1	0.05
CCn1ccc(C(=O)NC2CCCC2)n1	0.96	-0.04
CCn1nc(C)c(/C=N/NC(=S)Nc2ccc(Cl)cc2Cl)c1C	0.54	0.76
COC(=O)CN(c1cccc(F)c1)S(C)(=O)=O	0.14	-0.57

Gathered by group, the entries above containing two or more sulfur atoms (16)
SMILES	KCNQ2 pot	KCNQ2 pot baseline
COc1ccc(Nc2nc(-c3cccs3)cs2)c(OC)c1	0.06	-0.11
CC1CCc2c(sc3nc(CN4CCOCC4)nc(NS(=O)(=O)c4cccc([N+](=O)[O-])c4)c23)C1 (stereo not given)	0.07	-0.24
CCN(CC)S(=O)(=O)c1ccc(NC(=O)c2ccc(N(C)S(C)(=O)=O)cc2)cc1	2.3	-1.9
O=S(=O)(c1ccc(OCc2nc3ccccc3s2)c(Cl)c1)N1CCOCC1	0.66	-0.45
Cc1nc(-c2ccc(S(=O)(=O)NCc3ccccn3)s2)cs1	1.2	1.9
Cc1nc2scc(C)n2c(=O)c1S(=O)(=O)N1CCN(c2ccccn2)CC1	1.4	-0.08
Cc1csc2nc(SCC(=O)N3CCN(c4ccccc4)CC3)[nH]c(=O)c12	0.01	0.09
CC1CC(C)CN(C(=O)CCNS(=O)(=O)c2cccs2)C1 (stereo not given)	0.16	1.9
O=S(=O)(Nc1ccc(-c2cn3c(n2)SCC3)cc1)c1cccs1	0.68	0.4
CCCOc1ccc(C(=O)NC(=S)Nc2nc3ccccc3s2)cc1	2.4	0.85
O=C(Nc1nccs1)c1ccc(F)c(S(=O)(=O)N2CCOCC2)c1	2.1	-0.34
O=C(CSc1nc2scc(-c3ccccc3)c2c(=O)[nH]1)NCCc1ccccc1	0.51	0.22
O=C(O)c1ccc(/C=N/NC(=O)c2ccc(NS(=O)(=O)c3cccs3)cc2)cc1	0.5	-1.1
CCOc1ccc(Br)cc1S(=O)(=O)Nc1cccc(S(=O)(=O)N(C)C)c1	0.24	-1.4
O=C(CSc1nnc(-c2ccccc2)o1)NC1CCS(=O)(=O)C1 (stereo not given)	0.58	-0.19
O=C(CSc1nc2ccccc2s1)NNC(=S)Nc1ccc(Br)cc1	0.09	-0.51

Screens from PubChem BioAssay.
